ALR inh: human ALR oxidase inhibition via reduced H2O2. P55789. AID 485317. hit rate 3.8% among 290,000. inhibition, % (no concentration beside the values). purified ALR, DTT oxidation, H2O2 HRP-luminol luminescence;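 active = mean and each replicate at 75% or more; inconclusive = only one of the two met; inactive = neither met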;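 note: stock transfer was 7.5 nL into about 7.5 µL; 0% = neutral wells and 100% = wells with inactivated enzyme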
Target sequence (P55789 whole entry, looked up): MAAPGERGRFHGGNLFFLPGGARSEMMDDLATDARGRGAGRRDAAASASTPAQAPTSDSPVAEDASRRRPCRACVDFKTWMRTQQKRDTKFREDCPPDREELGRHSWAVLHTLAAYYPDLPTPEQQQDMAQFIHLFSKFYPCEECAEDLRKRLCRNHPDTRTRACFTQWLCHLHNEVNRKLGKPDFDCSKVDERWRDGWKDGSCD
rRNA inh HTS: selective bacterial rRNA inhibition in E. coli. E. coli WT GFP vs humanized-ribosome RFP mutants, fluorescence, 24 h; active compounds read low; DMSO median 0, no signal -100. GFP signal change (wild-type ribosome), % (no concentration beside the values). hit rate 1.6% among 350,000. AID 720706;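 active = significant combined selectivity score with lowered wild-type GFP, culture density cut under 30%, mutant RFP and density less affected; inactive = any of these conditions unmet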; note: one replicate is shown; some compounds called inactive have numbers as strong as hits
Beta cell apopt: beta cell apoptosis inhibition; INS-1E cytokine-induced death, ATP luminescence, 48 h; percent of positive-control rescue, neutral wells zero; protection from apoptosis, % (concentration not given with the values); hit rate 0.8% among 300,000; AID 435005;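 active = all replicates at 75% or more, or half of them and the mean; inconclusive = half reach 75% but not the mean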;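 note: 0% = cytokine-treated negative control wells and 100% = positive control rescue; higher means more ATP so stronger rescue from cytokine killing; wells of about 40 µL received 100 nL stock; the first replicate is given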
Beta2AR agonist: activates human beta-2 adrenergic receptor causing internalization; response, % (no concentration beside the values); hit rate 0.43% among 340,000; P07550; Am2.2-beta2AR cells, FAP receptor internalization, flow cytometry; reference of the scale not given here;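 active = response above a set limit, near 3 SD of response in nonfluorescent compounds, cut at about 42% in these data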;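 note: stock transfer was 100 nL into about 11 µL; a reference agonist was the positive control; negative values mostly stem from fluorescent compounds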
Target sequence (P07550 whole entry, looked up): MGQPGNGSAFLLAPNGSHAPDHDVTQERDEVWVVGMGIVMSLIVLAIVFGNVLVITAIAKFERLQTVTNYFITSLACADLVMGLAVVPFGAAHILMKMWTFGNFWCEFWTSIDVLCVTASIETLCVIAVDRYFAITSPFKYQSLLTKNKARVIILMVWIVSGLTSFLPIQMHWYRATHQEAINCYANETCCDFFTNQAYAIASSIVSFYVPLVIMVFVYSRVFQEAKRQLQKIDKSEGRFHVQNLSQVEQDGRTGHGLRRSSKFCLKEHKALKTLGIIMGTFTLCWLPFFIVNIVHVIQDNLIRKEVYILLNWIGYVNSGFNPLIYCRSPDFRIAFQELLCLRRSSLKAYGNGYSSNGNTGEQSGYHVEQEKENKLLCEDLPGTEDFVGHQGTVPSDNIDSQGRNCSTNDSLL
A1 inh: inhibitors of the anti-apoptotic protein A1, read as caspase activation; MEF A1-2A-BIM cells, Caspase-Glo 3/7 luminescence, 3 h; percent of clofoctol response, vehicle zero; caspase activation, % (test concentration not listed); hit rate 0.066% among 330,000;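 active = over half of replicate activation scores above 10%, or exactly half above 10 with the replicate mean above 10; inconclusive = replicate mean below 10 yet half the replicates above 10; inactive = over half of replicates below 10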;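 note: wells of about 30 µL received 50 nL stock; many hits fall short of the cut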
T cruzi inh: blocks replication of Trypanosoma cruzi. T. cruzi beta-gal in NIH3T3, luminescence, 90 h. inhibition, % (no concentration beside the values). hit rate 1.4% among 300,000;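 active = mean inhibition across valid replicates above about 55%, limit read from the data; inconclusive = mean below that limit but half or more replicates reach it; inactive = mean below it, under half of replicates reach it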;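 note: signal also drops with host cell toxicity which is not excluded here; 0% = plate median of DMSO wells and 100% = zero luminescence signal; higher percent means less beta-gal luminescence so fewer parasites; stock transfer was 50 nL into about 50 µL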
LANA-H2B inh: blocks KSHV LANA binding to histone H2A/H2B; inhibition, % (concentration not given with the values); hit rate 0.6% among 320,000; cell-free LANA-H2A/H2B peptide, fluorescence polarization; AID 2629; in the data active = inhibition mostly above about 10%, no sharp cut-off; inactive = mostly below about 6.7%;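 note: stock transfer was 7.5 nL into about 10 µL; 0% = median of vehicle wells and 100% = median of positive control wells; one replicate is shown; the record names a cut of 25% in any replicate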
Calb FLC: C. albicans growth modulation with fluconazole; hit rate 0.57% among 300,000; C. albicans CaCi-2 (fluconazole-resistant clinical isolate) + fluconazole, Alamar Blue growth, 48 h; growth inhibition, % (test concentration not listed);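 active = most replicates above 75%; inconclusive = exactly half above 75%; inactive = most below 75%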;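 note: all wells also contain fluconazole at 8 µg/ml as a sub-toxic cotreatment; 0% = median of DMSO wells and 100% = median of geldanamycin control wells; wells of about 8 µL received 7.5 nL stock; the first replicate is given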
rRNA inh HTS OD600: also measured in rRNA inh HTS; calls as there; OD600 change, %; measured here: OD600 growth;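 optical density of the mix in the first replicate; 0 = DMSO median and -100 = no signal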
rRNA inh HTS RFP: also measured in rRNA inh HTS; calls as there; RFP signal change, %; measured here: RFP humanized mutant strains;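 first replicate; 0 = DMSO median and -100 = no signal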
* hit, by the source's call; ? = inconclusive; . = not tested or not shown. This is a subset; the hit share may differ from the screen's.

Below each SMILES: rRNA inh HTS, ALR inh, Beta2AR agonist, A1 inh, Calb FLC, LANA-H2B inh, Beta cell apopt, rRNA inh HTS RFP, rRNA inh HTS OD600, T cruzi inh
NC(=O)C1CCCN(C(=O)CCCNC(=O)c2ccc(Cl)cc2)C1 (stereo unspecified)
  ., ., 0, 0.5, -6, -1.9, -4, ., ., -4
CCCC(=O)NCn1nnc(-c2ccc(Cl)cc2)n1
  5, ., -4, ., 6, ., ., -7.8, -1, 2
COc1cc2[nH]c(=S)n(C3CCCC3)c(=O)c2cc1OC
  ., 1, -3, -0.5, -15, 1.8, 10, ., ., -26
CCc1cc(=O)oc2cc(C)cc(OCC(=O)NC3CCN(Cc4ccccc4)CC3)c12
  -5, -2, 6, 3.2, -1, 6.2, 10, -1.1, -8, 39
CC[C@@]1(C(=O)OC)N[C@H](CN(C)S(=O)(=O)c2ccccc2)[C@@H]2C(=O)N(Cc3ccccc3)C(=O)[C@@H]21
  2, ., -4, 2.7, ., -4.2, -7, 1.4, 4, .
COc1ccc(CCN(C)S(=O)(=O)c2ccc(Cl)nc2)cc1OC
  -9, -8, -2, 0.8, -8, -4.5, 0, -6.6, -10, -2
C=CCN(C(=O)CCS(=O)(=O)c1cccc2nsnc12)c1ccccc1
  7, ., -7, -0.7, 11, -1.9, 0, 4.4, 0, 1
Cc1ccccc1S(=O)(=O)N1[C@@H](c2ccc(F)cc2)C(C(=O)O)=CC[C@H]1c1ccc(Cl)cc1
  -33, 5, -3, 0.7, ., -3.9, -5, -4.1, -33, .
O=C(Nc1nccs1)c1ccc[nH]c1=O
  0, -9, -6, -0.4, -2, 0.2, 0, -3.9, 2, -15
CCCn1c(SCC(=O)N2CCc3ccccc32)n[nH]c1=O
  6, 0, 1, 0.1, ., 1.7, -8, 6.8, 13, .
Cc1ccc(SCC(=O)NN=C2CCN(C)CC2)cc1
  15, 16, 4, -0.2, 4, 2.4, -7, 0.0, 0, -15
CCOc1ccc(S(=O)(=O)NCCC(=O)NCC(c2ccco2)N2CCCCC2)cc1 (stereo unspecified)
  5, ., 0, 1.2, ., 2.5, 5, 1.5, 14, .
O=C(NCc1ccncc1)C(=O)NCc1ccncc1
  1, -2, 1, -0.4, 11, -1.2, -3, -4.4, -1, -9
CC(=O)NC(c1ccc2ccccc2c1)c1ccc2cccnc2c1O (stereo unspecified)
  -15, -8, 6, 0.9, -4, 4.6, ., -2.1, -26, 61*
COC(=O)/C(C#N)=C\c1c(OC)[nH]c2ccccc12
  -2, 8, 8, 0.3, 5, 2.7, 24, -0.9, 2, -13
Cc1cc(OCCCCNC(C)C)cc(C(C)C)c1
  ., -16, 9, 1.1, -25, -1.4, -8, ., ., 19
Cc1ccccc1NC(=O)c1ccc(CN2CCc3ccccc3C2)cc1
  ., -1, 5, -0.7, 9, -1.6, -1, ., ., 2
COc1ccc(CNS(=O)(=O)NCc2ccc(C)cc2)cc1OC
  -1, -6, 0, 0.0, -7, -8.8, 17, 9.7, 6, -29
Cc1cc(C)nc(/N=C2\NC(=O)CC(C(=O)O)N2c2ccc(Cl)cc2)n1 (stereo unspecified)
  13, 14, 6, 0.0, 5, -2.7, -3, 0.5, 18, -6
Cc1cc(C(=O)CSc2n[nH]c(N)n2)c(C)n1-c1cccc(F)c1
  2, 25, -8, 1.1, 15, -0.7, 9, 3.5, 5, 1
Cc1cc(OCC(=O)N2CCC(C(=O)O)CC2)c2c(C)cc(=O)oc2c1
  ., 5, 10, -0.2, -3, 14, -6, ., ., -3
COc1ccc(-c2ncccc2O)cc1
  ., 21, 1, -0.7, 3, 2.4, -5, ., ., -6
CC1(NC(=S)Nc2ccc(NC(=S)NC3(C)CCS(=O)(=O)C3)cc2)CCS(=O)(=O)C1 (stereo unspecified)
  12, 55, -4, -0.5, 3, 0.6, -3, 0.2, 4, .
COc1ccc(CCNc2c([N+](=O)[O-])c(=O)oc3ccccc23)cc1OC
  ., -7, -1, -0.3, 16, 2.9, -5, ., ., 4
Fc1ccc(-c2cnc[nH]2)cc1
  ., -9, -1, 0.2, -10, -0.1, -1, ., ., .
Cc1ccc(S(=O)(=O)N(C)C)cc1NC(=O)C(C)OC(=O)c1cc[n+]([O-])cc1 (stereo unspecified)
  4, 5, -10, 0.0, ., -5.6, -3, -3.3, 0, .
COc1ccccc1NC(=O)CN(c1ccccc1)S(=O)(=O)c1ccccc1
  -20, -6, 4, 0.1, 2, -4.7, -5, -2.4, -28, -4
CC(O)(CS(=O)(=O)Cc1ccccc1)c1ccccc1 (stereo unspecified)
  4, -5, -4, -0.2, -2, 10, 0, -7.2, 3, -7
CC(C)N(C)CCOC(=O)C1COc2ccccc2O1 (stereo unspecified)
  9, 0, 0, -1.2, -3, -2.5, 0, -0.2, 5, 5
O=C(c1cccc(-n2cccc2)c1)N1CCN(S(=O)(=O)c2ccccc2)CC1
  2, 4, -6, 0.5, -8, 2.7, 1, 1.7, 1, -1

Structural class: those above with a COOH group (3)
Below each SMILES: rRNA inh HTS, ALR inh, Beta2AR agonist, A1 inh, Calb FLC, LANA-H2B inh, Beta cell apopt, rRNA inh HTS RFP, rRNA inh HTS OD600, T cruzi inh
Cc1ccccc1S(=O)(=O)N1[C@@H](c2ccc(F)cc2)C(C(=O)O)=CC[C@H]1c1ccc(Cl)cc1
  -33, 5, -3, 0.7, ., -3.9, -5, -4.1, -33, .
Cc1cc(C)nc(/N=C2\NC(=O)CC(C(=O)O)N2c2ccc(Cl)cc2)n1 (stereo unspecified)
  13, 14, 6, 0.0, 5, -2.7, -3, 0.5, 18, -6
Cc1cc(OCC(=O)N2CCC(C(=O)O)CC2)c2c(C)cc(=O)oc2c1
  ., 5, 10, -0.2, -3, 14, -6, ., ., -3

The list continues.
Below each SMILES: rRNA inh HTS, ALR inh, Beta2AR agonist, A1 inh, Calb FLC, LANA-H2B inh, Beta cell apopt, rRNA inh HTS RFP, rRNA inh HTS OD600, T cruzi inh
CC(C)[C@H]1C(=O)Nc2ccccc2N1C(=O)N[C@@H](Cc1ccccc1)C(=O)N[C@@H](C(=O)O)c1ccccc1
  ., -11, 4, -0.9, -7, 0.0, ., ., ., 0
N=C1c2ccccc2CN1NC(=O)COc1ccc(Cl)cc1
  -4, -2, 4, 1.8, 12, 0.9, -8, 1.4, -2, -9
COc1cccc(NC(=O)c2cc3ccccc3o/c2=N\O)c1
  -31, -1, -10, -7.7, -4, -5.3, 2, -8.0, -50, -15
O=C(Nc1ccc(Cl)c(S(=O)(=O)N2CCOCC2)c1)c1cccs1
  -13, ., -12, 0.5, ., 1.3, -7, -2.4, -35, .
CC(C(=O)Nc1ccc(O)c(C(=O)O)c1)N1C(=O)/C(=C/c2cccs2)SC1=S (stereo unspecified)
  -11, 32, -5, 0.2, 5, 4.4, -1, 1.0, -2, -13
O=c1cc(O)nc(SCc2ccccc2)n1-c1ccc(Cl)cc1
  0, 98*, 1, 0.3, -7, 0.9, -1, 8.8, -1, 3
CC1=C(C(=O)Nc2ccccc2C(=O)N2CCC(C)CC2)SCCO1
  2, 0, 7, -0.3, 23, 3.4, 0, -0.5, -10, -6
O=C(CN1C(=O)NC2(CCCC2)C1=O)OCCOc1cccc(Cl)c1
  -4, -1, -1, -0.6, -3, -0.7, -3, 2.0, -10, -11
COc1ccc(C2Nc3ccccc3C(=O)N2c2ccc(C)cc2)cc1COc1ccccn1 (stereo unspecified)
  ., -1, 0, 0.5, -3, -4.5, 2, ., ., -11
O=C(O)c1cc(C(=O)O)cc(N2C(=O)CSC2=S)c1
  14, ., -10, -1.0, 10, 1.0, -9, 11, 16, -7
COC(=O)/C=c1/sc2n(c1=O)CCN=2
  ., -3, 3, 0.7, -1, 2.4, -3, ., ., -27
CC(NO)/C(=N\O)c1cccs1 (stereo unspecified)
  7, 7, -1, -1.4, -8, 2.1, -1, -1.3, 9, -8
O=C(Cc1cnn(-c2ccccc2)c1)c1ccc(O)c(O)c1O
  ., 100*, 5, -0.5, ?, 5.8, -6, ., ., -12
CCCCNC(=O)C(c1ccc(OCC(=O)OC)c(C(=O)OC)c1)N(CCOC)C(=O)CCCCCN1C(=O)NC(c2ccc(-c3ccccc3)cc2)C(C(=O)OCc2ccccc2)=C1C (stereo unspecified)
  10, ., ., 1.5, 1, -0.3, -2, 1.2, 16, 21
O=C(Cn1c(NCCO)nc2ccccc21)NCC(F)(F)F
  12, -16, -5, 0.0, 0, -5.1, 1, 3.4, 1, -4
C[C@H]1[C@H](C)CC[C@]2(C)CC[C@]3(C)C(=CC(=O)C4[C@@]5(C)CC[C@H](O)C(C)(C)C5CC[C@]43C)[C@H]12 (stereo partly specified)
  6, 3, 7, 0.1, ., 1.2, 5, -0.5, 4, .
CCN(C(=O)CSc1nc(-c2cccs2)nc2ccccc12)C1CCS(=O)(=O)C1 (stereo unspecified)
  -12, ., -10, 0.3, ., 1.3, -19, 4.8, -23, .
COc1ccc(/C=C/C(=O)c2cc3c(cc2N)OCO3)cc1
  -29, 48, -3, -7.9, 35, -1.6, 0, -8.7, -34, -10
Cc1ccccc1-n1c(=O)cc(NCc2ccc3c(c2)OCO3)[nH]c1=O
  ., 15, -1, 0.0, 26, 1.2, -4, ., ., .
COc1ccc(OC)c(NC(=O)COC(=O)/C=C/c2c(C)nn(C3CCS(=O)(=O)C3)c2Cl)c1 (stereo unspecified)
  ., ., -1, -0.9, 5, 1.7, ., ., ., 0
O=S(=O)(Nc1cccc(-n2cnnn2)c1)c1cc(Cl)ccc1Cl
  -7, 2, 6, -0.1, 8, 0.2, 8, 1.3, -21, -26
CC(C)NC(=O)COC(=O)c1ccc(S(=O)(=O)N2CCCC2)cc1
  7, -5, 3, -0.1, 14, 0.0, -9, 0.3, 0, -8
O=C1COC(c2ccccc2)C2CCCCN12 (stereo unspecified)
  ., -7, -5, 0.1, 5, 5.9, -7, ., ., 2

Four of the entries above in order of their number in rRNA inh HTS RFP, smallest number first:
Structure | rRNA inh HTS | ALR inh | Beta2AR agonist | LANA-H2B inh | rRNA inh HTS RFP | rRNA inh HTS OD600
COc1cccc(NC(=O)c2cc3ccccc3o/c2=N\O)c1 | -31 | -1 | -10 | -5.3 | -8.0 | -50
Cc1ccccc1S(=O)(=O)N1[C@@H](c2ccc(F)cc2)C(C(=O)O)=CC[C@H]1c1ccc(Cl)cc1 | -33 | 5 | -3 | -3.9 | -4.1 | -33
CC(=O)NC(c1ccc2ccccc2c1)c1ccc2cccnc2c1O (stereo unspecified) | -15 | -8 | 6 | 4.6 | -2.1 | -26
O=C(Cn1c(NCCO)nc2ccccc21)NCC(F)(F)F | 12 | -16 | -5 | -5.1 | 3.4 | 1

Screens: PubChem BioAssay, several laboratories
